Source: PubChem (Broad Institute)
HIV Env fusion – HIV envelope-mediated fusion inhibition; HeLa-JRFL Env/CEM21 cell fusion, luciferase; inhibition, % at 12.3 µM; 1.1% of 360,000 active;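 active means mean replicate inhibition score of at least 50 and every replicate individually at or above 50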;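 further: 0% = plate neutral controls and 100% = maraviroc near 300 nM; one replicate is shown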
Yeast UUG start – alters start codon recognition fidelity in yeast | S. cerevisiae UUG-firefly luciferase reporter, luminescence/redox ratio | AID 602363 | activity score, % at 18.7 µM | 0.13% of 350,000 active;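 active means replicate mean at a twofold rise or more, about +100% in these data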;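 further: firefly luciferase made from a UUG start codon reports start codon fidelity; reporter light over untreated wells divided by growth signal over untreated wells; some hits fall short of that in this replicate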
Starred values were filed as active, the others as inactive; [ ] = dose if it differs, or a comment.

Screening COc1ccc(S(=O)(=O)Nc2ccc3c(c2)C(=O)N([C@H](C)CO)C[C@@H](C)[C@H](CN(C)C(=O)Nc2ccc(C(F)(F)F)cc2)OCCCC[C@H](C)O3)cc1 returned HIV Env fusion 35[16.7 µM] and Yeast UUG start -24.
For Cc1noc(C)c1S(=O)(=O)N(C)C[C@H]1Oc2ccc(NC(=O)C3CC3)cc2CC(=O)N([C@@H](C)CO)C[C@H]1C the results were HIV Env fusion 0[16.7 µM] and Yeast UUG start -8.
Screening C[C@@H]1CN([C@@H](C)CO)C(=O)Cc2cc(NC(=O)NC3CCCCC3)ccc2O[C@@H]1CN(C)C(=O)Nc1ccc(C(F)(F)F)cc1 returned HIV Env fusion 13[16.7 µM] and Yeast UUG start 5.
For Cc1noc(C)c1NC(=O)N[C@@H]1CC[C@H](CC(=O)NCCCN(C)C)O[C@@H]1CO the results were HIV Env fusion -3[16.7 µM] and Yeast UUG start -15.
Screening Cc1noc(C)c1S(=O)(=O)N(C)C[C@@H]1Oc2c(cccc2N(C)C)C(=O)N([C@@H](C)CO)C[C@H]1C returned HIV Env fusion -3[16.7 µM] and Yeast UUG start 30.
Screening COCC(=O)N1[C@H](C#N)[C@@H](c2ccccc2)[C@H]1CO returned HIV Env fusion -8[16.7 µM] and Yeast UUG start 3.
COc1ccc(CN(C)C[C@@H]2OCCCC[C@H](C)Oc3ccc(NS(=O)(=O)c4c(C)noc4C)cc3C(=O)N([C@H](C)CO)C[C@@H]2C)cc1 was read as HIV Env fusion -2[16.7 µM] and Yeast UUG start 20.
Screening Cc1noc(C)c1NC(=O)Nc1ccc2c(c1)CC(=O)N([C@H](C)CO)C[C@H](C)[C@H](CN(C)C(=O)Nc1ccc(F)cc1)O2 returned HIV Env fusion -17[16.7 µM] and Yeast UUG start 9.
Screening COCC#Cc1cnc2c(c1)C(=O)N([C@@H](C)CO)C[C@H](C)[C@H](CN(C)C(=O)Cc1ccncc1)O2 returned HIV Env fusion -8[16.7 µM] and Yeast UUG start 5.
`COc1ccc(NC(=O)N(C)C[C@H]2OCCCC[C@@H](C)Oc3ccc(NS(=O)(=O)c4c(C)noc4C)cc3C(=O)N([C@H](C)CO)C[C@H]2C)cc1` gave HIV Env fusion -23[16.7 µM] and Yeast UUG start 15.
COc1ccc(CNC(=O)C[C@@H]2CC[C@H]3[C@@H](COc4ccc(NC(=O)C5CC5)cc4C(=O)N3C)O2)cc1 was read as HIV Env fusion 5[16.7 µM] and Yeast UUG start 25.
For O=C(O)C[C@H]1CC[C@@H](NC(=O)Nc2cc(F)ccc2F)[C@H](CO)O1 the results were HIV Env fusion -11[16.7 µM] and Yeast UUG start -16.
For C[C@@H]1CN([C@H](C)CO)C(=O)c2cc(-c3ccncc3)cnc2O[C@H]1CN(C)Cc1cccnc1 the results were HIV Env fusion 1[16.7 µM] and Yeast UUG start -12.
`C[C@H]1CCCCO[C@H](CN(C)C(=O)C2CCCCC2)[C@@H](C)CN([C@@H](C)CO)C(=O)c2cc(NS(C)(=O)=O)ccc2O1` gave HIV Env fusion 1[16.7 µM] and Yeast UUG start 6.
`COc1ccc(CN(C)C[C@@H]2Oc3ccc(NC(=O)C4CCCCC4)cc3CC(=O)N([C@H](C)CO)C[C@@H]2C)cc1` gave HIV Env fusion -62[16.7 µM] and Yeast UUG start -7.
Cc1noc(C)c1NC(=O)N(C)C[C@H]1Oc2ccc(NS(=O)(=O)c3cccs3)cc2CC(=O)N([C@@H](C)CO)C[C@@H]1C was read as HIV Env fusion -8[16.7 µM] and Yeast UUG start 9.
`C[C@@H]1CCCCO[C@H](CN(C)S(=O)(=O)c2cn(C)cn2)[C@@H](C)CN([C@@H](C)CO)C(=O)c2cc(NC(=O)NC3CCCCC3)ccc2O1` gave HIV Env fusion -4[16.7 µM] and Yeast UUG start -6.
`C[C@H](CO)N1C[C@H](C)[C@@H](CN(C)Cc2ccc(C(=O)Nc3ccccc3N)cc2)Oc2ccc(NC(=O)Cn3cnnn3)cc2CC1=O` gave HIV Env fusion 8[16.7 µM] and Yeast UUG start 1.
`COCC#Cc1cnc2c(c1)C(=O)N([C@H](C)CO)C[C@H](C)[C@@H](CN(C)C(=O)Nc1c(C)noc1C)O2` gave HIV Env fusion -9[16.7 µM] and Yeast UUG start 11.
`C[C@@H]1CN([C@@H](C)CO)C(=O)c2cc(NC(=O)C3CC3)ccc2O[C@@H]1CN(C)Cc1ccc(C(F)(F)F)cc1` gave HIV Env fusion 3[16.7 µM] and Yeast UUG start 28.
O=C(NCC[C@H]1CC[C@H](NC(=O)C2CCOCC2)[C@H](CO)O1)c1ccc(F)cc1 was read as HIV Env fusion 4[16.7 µM] and Yeast UUG start 1.
`Cc1ccc(-c2ccc3c(c2)O[C@H](CN(C)C(=O)Nc2ccc(F)cc2)[C@@H](C)CN([C@@H](C)CO)S3(=O)=O)cc1` gave HIV Env fusion -12[16.7 µM] and Yeast UUG start -9.
`C[C@@H]1CN([C@H](C)CO)S(=O)(=O)c2ccc(-c3ccccc3)cc2O[C@@H]1CN(C)C(=O)c1ccccc1F` gave HIV Env fusion 13[16.7 µM] and Yeast UUG start -2.
Screening C[C@@H]1CN([C@@H](C)CO)C(=O)Cc2cc(NS(=O)(=O)c3cccs3)ccc2O[C@@H]1CN(C)S(=O)(=O)c1cn(C)cn1 returned HIV Env fusion -7[16.7 µM] and Yeast UUG start -2.
COc1cccc(NC(=O)N[C@@H]2CC[C@@H](CC(=O)Nc3ccccc3)O[C@@H]2CO)c1 was read as HIV Env fusion 14[16.7 µM] and Yeast UUG start -7.
C[C@H]1CN([C@@H](C)CO)S(=O)(=O)c2ccc(-c3ccc(C#N)cc3)cc2O[C@H]1CN(C)C(=O)Nc1cc(F)ccc1F was read as HIV Env fusion -111[16.7 µM] and Yeast UUG start -5.
`COc1ccc(NC(=O)Nc2cccc3c2O[C@@H](CN(C)Cc2ccccc2)[C@@H](C)CN([C@@H](C)CO)C3=O)cc1` gave HIV Env fusion -8[16.7 µM] and Yeast UUG start 10.
Screening Cc1ccc(S(=O)(=O)N(C)C[C@H]2Oc3ccc(NC(=O)Nc4ccc5c(c4)OCO5)cc3CC(=O)N([C@H](C)CO)C[C@@H]2C)cc1 returned HIV Env fusion 19[16.7 µM] and Yeast UUG start -14.
For O=C(C[C@H]1CC[C@@H](NC(=O)c2ccncc2)[C@@H](CO)O1)NCCc1ccncc1 the results were HIV Env fusion 40[16.7 µM] and Yeast UUG start 0.
Screening COc1cccc(S(=O)(=O)N[C@H]2CC[C@H](CC(=O)NC3CCC3)O[C@H]2CO)c1 returned HIV Env fusion 4[16.7 µM] and Yeast UUG start -8.
CCCNC(=O)N[C@H]1C=C[C@@H](CC(=O)NC2CCCCC2)O[C@@H]1CO was read as HIV Env fusion -11[16.7 µM] and Yeast UUG start 2.
`O=C(C[C@H]1C=C[C@H](NC(=O)C2CC2)[C@H](CO)O1)NCC1CC1` gave HIV Env fusion 13[16.7 µM] and Yeast UUG start -9.
`C[C@@H]1CCCCO[C@@H](CN(C)C(=O)CCC(F)(F)F)[C@H](C)CN([C@@H](C)CO)C(=O)c2cc(NS(=O)(=O)c3ccccc3)ccc2O1` gave HIV Env fusion -23[16.7 µM] and Yeast UUG start 10.
`Cc1cc(C(=O)Nc2cccc3c2O[C@H](CN(C)C(=O)Nc2cccc4ccccc24)[C@@H](C)CN([C@H](C)CO)C3=O)n(C)n1` gave HIV Env fusion -5[16.7 µM] and Yeast UUG start 15.
For C[C@@H]1CCCCO[C@H](CN(C)S(=O)(=O)c2cn(C)cn2)[C@H](C)CN([C@@H](C)CO)C(=O)c2cc(NS(C)(=O)=O)ccc2O1 the results were HIV Env fusion -2[16.7 µM] and Yeast UUG start 2.
COc1ccc(CNC(=O)C[C@H]2CC[C@H](NC(=O)c3ccc4c(c3)OCO4)[C@H](CO)O2)cc1 was read as HIV Env fusion 10[16.7 µM] and Yeast UUG start -9.
For COCC#Cc1cnc2c(c1)C(=O)N([C@@H](C)CO)C[C@@H](C)[C@@H](CN(C)C(=O)Nc1ccc(OC)cc1)O2 the results were HIV Env fusion 4[16.7 µM] and Yeast UUG start 1.
`Cc1noc(C)c1NC(=O)N(C)C[C@@H]1Oc2c(NC(=O)Nc3ccc(F)cc3)cccc2C(=O)N([C@@H](C)CO)C[C@@H]1C` gave HIV Env fusion -34[16.7 µM] and Yeast UUG start 1.
C[C@@H]1CN([C@@H](C)CO)C(=O)c2cccc(NC(=O)c3ccncc3)c2O[C@@H]1CN(C)Cc1ccc(C(F)(F)F)cc1 was read as HIV Env fusion 14[16.7 µM] and Yeast UUG start -21.
For C[C@@H]1CN([C@@H](C)CO)C(=O)c2cc(-c3cncnc3)cnc2O[C@H]1CN(C)Cc1ccccc1 the results were HIV Env fusion -26[16.7 µM] and Yeast UUG start -18.
`CC(C)NC(=O)Nc1ccc2c(c1)CC(=O)N([C@@H](C)CO)C[C@@H](C)[C@H](CN(C)C(=O)Nc1cccc3ccccc13)O2` gave HIV Env fusion 11[16.7 µM] and Yeast UUG start 2.
For O=C(C[C@@H]1CC[C@@H]2[C@H](COC[C@@H](O)CN2C(=O)Nc2cccc(Cl)c2)O1)NCCCN1CCOCC1 the results were HIV Env fusion -10[16.7 µM] and Yeast UUG start 1.
Screening CC(C)CC#Cc1ccc2c(c1)O[C@@H](CN(C)C(=O)Cc1ccncc1)[C@H](C)CN([C@@H](C)CO)S2(=O)=O returned HIV Env fusion 2[16.7 µM] and Yeast UUG start -8.
For Cc1noc(C)c1NC(=O)Nc1ccc2c(c1)CC(=O)N([C@H](C)CO)C[C@@H](C)[C@H](CN(C)C(=O)Nc1ccc(C(F)(F)F)cc1)O2 the results were HIV Env fusion -13[16.7 µM] and Yeast UUG start 3.
`COC(=O)C[C@@H]1CC[C@H]2[C@@H](COC[C@@H](O)CN2S(=O)(=O)c2ccc(F)cc2)O1` gave HIV Env fusion 5[16.7 µM] and Yeast UUG start 0.

The last 5 compounds of the part above come first, to join the parts:
`CC(C)NC(=O)Nc1ccc2c(c1)CC(=O)N([C@@H](C)CO)C[C@@H](C)[C@H](CN(C)C(=O)Nc1cccc3ccccc13)O2` gave HIV Env fusion 11[16.7 µM] and Yeast UUG start 2.
For O=C(C[C@@H]1CC[C@@H]2[C@H](COC[C@@H](O)CN2C(=O)Nc2cccc(Cl)c2)O1)NCCCN1CCOCC1 the results were HIV Env fusion -10[16.7 µM] and Yeast UUG start 1.
Screening CC(C)CC#Cc1ccc2c(c1)O[C@@H](CN(C)C(=O)Cc1ccncc1)[C@H](C)CN([C@@H](C)CO)S2(=O)=O returned HIV Env fusion 2[16.7 µM] and Yeast UUG start -8.
For Cc1noc(C)c1NC(=O)Nc1ccc2c(c1)CC(=O)N([C@H](C)CO)C[C@@H](C)[C@H](CN(C)C(=O)Nc1ccc(C(F)(F)F)cc1)O2 the results were HIV Env fusion -13[16.7 µM] and Yeast UUG start 3.
`COC(=O)C[C@@H]1CC[C@H]2[C@@H](COC[C@@H](O)CN2S(=O)(=O)c2ccc(F)cc2)O1` gave HIV Env fusion 5[16.7 µM] and Yeast UUG start 0.
`C[C@@H]1CCCCO[C@H](CN(C)C(=O)CCC(F)(F)F)[C@@H](C)CN([C@@H](C)CO)C(=O)c2cc(NC(=O)Nc3ccccc3)ccc2O1` gave HIV Env fusion 11[16.7 µM] and Yeast UUG start 12.
`CCCNC(=O)C[C@@H]1C[C@@H]2c3cc(NS(=O)(=O)c4ccccc4)ccc3O[C@@H]2[C@H](CO)O1` gave HIV Env fusion -11[16.7 µM] and Yeast UUG start -8.
Screening CCS(=O)(=O)Nc1ccc2c(c1)C(=O)N(C)[C@@H]1CC[C@@H](CC(=O)NC3CCCCC3)O[C@@H]1CO2 returned HIV Env fusion 1[16.7 µM] and Yeast UUG start 3.
Screening C[C@H]1CN([C@@H](C)CO)S(=O)(=O)c2ccc(C#CC3CCCC3)cc2O[C@H]1CN(C)S(C)(=O)=O returned HIV Env fusion 18[16.7 µM] and Yeast UUG start 6.
COCC#Cc1cnc2c(c1)C(=O)N([C@H](C)CO)C[C@@H](C)[C@@H](CN(C)Cc1ccc3c(c1)OCO3)O2 was read as HIV Env fusion -20[16.7 µM] and Yeast UUG start 27.
Screening C[C@H](CO)N1C[C@H](C)[C@@H](CN(C)Cc2ccccc2)Oc2ccc(NC(=O)NC3CCCCC3)cc2CC1=O returned HIV Env fusion -7[16.7 µM] and Yeast UUG start 3.
`C[C@@H]1CCCCO[C@@H](CN(C)C(=O)Nc2ccc3c(c2)OCO3)[C@H](C)CN([C@H](C)CO)C(=O)c2cc(NC(=O)Cc3ccccc3)ccc2O1` gave HIV Env fusion 4[16.7 µM] and Yeast UUG start -14.
Screening C[C@@H]1CN([C@H](C)CO)C(=O)c2cc(NC(=O)C3CCCCC3)ccc2O[C@H]1CN(C)Cc1ccncc1 returned HIV Env fusion 28[16.7 µM] and Yeast UUG start 1.
`COc1ccc(NC(=O)Nc2ccc3c(c2)CC(=O)N([C@H](C)CO)C[C@@H](C)[C@@H](CN(C)C(=O)Nc2c(C)noc2C)O3)cc1` gave HIV Env fusion -2[16.7 µM] and Yeast UUG start -3.
Screening O=C(CCN1CCCCC1)N[C@@H]1C=C[C@@H](CC(=O)N2CCC(Cc3ccccc3)CC2)O[C@H]1CO returned HIV Env fusion 3[16.7 µM] and Yeast UUG start -7.
For COc1ccc(S(=O)(=O)N(C)C[C@@H]2Oc3c(NS(=O)(=O)c4ccc(F)cc4)cccc3C(=O)N([C@@H](C)CO)C[C@@H]2C)cc1 the results were HIV Env fusion -25[16.7 µM] and Yeast UUG start -6.
For C[C@H](O)C#Cc1cnc2c(c1)C(=O)N([C@H](C)CO)C[C@H](C)[C@H](CN(C)C(=O)c1ccccc1F)O2 the results were HIV Env fusion 18[16.7 µM] and Yeast UUG start 3.
For COc1ccccc1S(=O)(=O)N[C@H]1C=C[C@H](CC(=O)N2CCOCC2)O[C@@H]1CO the results were HIV Env fusion -12[16.7 µM] and Yeast UUG start -13.

These rows are one share of the data; the hit share may differ from the screen's.
